From PubChem
TDP1 block: inhibitors of human tyrosyl-DNA phosphodiesterase TDP1 | Q9NUW8 | recombinant TDP1, AlphaScreen DNA substrate cleavage | Potency, µM (titrated, usually from 130 µM), for the others: top-dose activity change, negative = inhibition, hits mostly inhibitors | 350,000 tested, 0.28% active | AID 485290; note: nearly all actives have a fitted effect of over 40% in size
Target sequence (Q9NUW8 whole entry, looked up): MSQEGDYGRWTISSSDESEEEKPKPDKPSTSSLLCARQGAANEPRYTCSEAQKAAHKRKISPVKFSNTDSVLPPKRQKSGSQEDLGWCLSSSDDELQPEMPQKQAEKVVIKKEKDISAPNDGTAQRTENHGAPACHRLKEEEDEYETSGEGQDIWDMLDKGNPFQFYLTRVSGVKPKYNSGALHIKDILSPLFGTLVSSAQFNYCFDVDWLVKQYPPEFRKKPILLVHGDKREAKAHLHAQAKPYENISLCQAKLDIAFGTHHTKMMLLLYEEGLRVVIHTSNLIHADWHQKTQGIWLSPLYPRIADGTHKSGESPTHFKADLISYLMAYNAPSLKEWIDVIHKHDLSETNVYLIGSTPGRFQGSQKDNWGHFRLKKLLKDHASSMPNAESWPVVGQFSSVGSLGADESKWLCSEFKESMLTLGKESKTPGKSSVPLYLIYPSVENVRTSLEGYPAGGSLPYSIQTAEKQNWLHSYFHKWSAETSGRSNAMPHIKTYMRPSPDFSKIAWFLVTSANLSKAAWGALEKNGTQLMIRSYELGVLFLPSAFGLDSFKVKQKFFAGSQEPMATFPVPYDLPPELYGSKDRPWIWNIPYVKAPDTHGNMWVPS
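E. coli-derived human Tdp1, 1 nM final. Cpd preinc 15 min RT; substrate 15 nM final, 5 min RT; AS bead mix 10 ug/ml final, 10 min RT. Signal loss = tyrosine-FITC cleavage. No-enzyme wells = max signal.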
GCN5L2 inh: inhibitors of human GCN5L2 histone acetyltransferase | GCN5L2 HAT assay, ThioGlo1 CoA-SH fluorescence | Potency, µM (top dose mostly 58.9 µM), without a hit: top-dose activity change, negative = inhibition, actives largely listed as inhibitors | Q92830 | 390,000 tested, 0.21% active | AID 504327
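Free CoA generated was detected with ThioGlo1 (50uM) fluorescence at Ex340nm/Em540nm, read immediately and after 20 min at room temperature. Enzyme, 20 nM in HEPES pH 7.5 buffer, saw compounds 15 min before adding 75uM H3(1-25) peptide and 70uM acetyl-CoA.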
The depositor's hits bear a star; & = joins results of further samples; [ ] = dose if it differs, or a comment. Calls come from the whole dose curve; as a rule, active = well fitted curve in the direction sought with a large enough effect; inconclusive = small, poorly fitted or top-dose-only effect, or another doubt; inactive = no such curve, though single readings can be large; an effect the other way counts as inactive or inconclusive. % is set by controls: 0 for no effect and ±100 for the full control effect; potency is the fitted concentration of half-maximal effect. The list is partial, and most or all hits are left out here.

`C=C[C@](C)(O)CCC=C(C)C` gave TDP1 block 5.4% and GCN5L2 inh -0.9%.
CN1CCN(C(=O)c2ccc(NS(=O)(=O)c3ccccc3)cc2)CC1 was read as TDP1 block 6.2% and GCN5L2 inh -2.2%.
For NC(=O)c1cc[n+](CC2=C(C(=O)O)N3C(=O)[C@@H](NC(=O)[C@H](c4ccccc4)S(=O)(=O)[O-])[C@@H]3SC2)cc1 the results were TDP1 block inconclusive and GCN5L2 inh 0.0%[21.4 µM].
CCCCOC(=O)COc1ccc(Cl)cc1Cl was read as TDP1 block 0.3% and GCN5L2 inh inconclusive.
CC[C@@H]1OC(=O)[C@H](C)[C@H](O[C@@H]2C[C@](C)(OC)[C@H](O)[C@H](C)O2)[C@H](C)[C@H](O[C@@H]2O[C@@H](C)C[C@@H](N(C)C)[C@@H]2O)[C@](C)(O)C[C@H](C)C(=NOCOCCOC)[C@H](C)[C@H](O)[C@]1(C)O was read as TDP1 block 6.5%[56.1 µM] and GCN5L2 inh 61.1%[activator][21.4 µM].
For COc1ccc(-c2csc3ncnc(N4CCN(S(=O)(=O)c5ccccc5C#N)CC4)c23)cc1 the results were TDP1 block 4.2% and GCN5L2 inh -2.7%.
Oc1c(Cl)cc(Cl)c(Cl)c1Cc1c(O)c(Cl)cc(Cl)c1Cl was read as TDP1 block 8.2% and GCN5L2 inh 12.6µM*.
O=[N+]([O-])c1cccc(COc2ncnc3cc([N+](=O)[O-])ccc23)c1 was read as TDP1 block 2.9% and GCN5L2 inh 0.8%.
Screening CN[C@@H]1CC[C@H](c2ccc(Cl)c(Cl)c2)c2ccccc21 returned GCN5L2 inh -2.1%.
For Cc1cc(C)c(S(=O)(=O)n2cc(C(C)C(N)C(=O)O)c3ccccc32)c(C)c1 (stereo not given) the results were GCN5L2 inh inconclusive.

The list goes on (2 carried over from the part before).
Screening CN[C@@H]1CC[C@H](c2ccc(Cl)c(Cl)c2)c2ccccc21 returned GCN5L2 inh -2.1%.
For Cc1cc(C)c(S(=O)(=O)n2cc(C(C)C(N)C(=O)O)c3ccccc32)c(C)c1 (stereo not given) the results were GCN5L2 inh inconclusive.
Screening CC[C@H](C)C(=O)O[C@H]1C[C@@H](C)C=C2C=C[C@H](C)[C@H](CC[C@@H]3C[C@@H](O)CC(=O)O3)[C@H]21 returned TDP1 block -8.2%&0.0%&8.5%&20.0% and GCN5L2 inh 0.2%&-11.6%&-15.8%&17.1%.
For C1=CC2C3C=CC(C3)C2C1 (stereo not given) the results were TDP1 block 0.4%&-3.1% and GCN5L2 inh -0.9%.
`Cc1ccc(NC(=O)c2ccc3c(c2)OCCO3)cc1S(=O)(=O)Nc1cccc(Cl)c1` gave TDP1 block 5.4% and GCN5L2 inh -17.1%.
For CC12CCC(=O)C=C1CCC1C2C(=O)CC2(C)C1CC[C@]2(O)C(=O)CO (stereo not given in full) the results were GCN5L2 inh -0.7%.
`CC(C)C(=O)Nc1ccc([N+](=O)[O-])c(C(F)(F)F)c1` gave TDP1 block -2.8%[56.1 µM] and GCN5L2 inh -12.3%.
O=S(=O)(c1cc(C(F)(F)F)ccc1Cl)N1CCN(c2ncnc3ccccc23)CC1 was read as TDP1 block 0.4% and GCN5L2 inh -3.1%.
`CC12CCC(=O)C=C1CCC1C2C(=O)CC2(C)C1CCC2(O)C(=O)CO` (stereo not given) gave TDP1 block -11.9% and GCN5L2 inh -13.9%.
`CC(C)NCC(O)c1ccc(O)c(O)c1` (stereo not given) gave TDP1 block -9.5%[56.1 µM] and GCN5L2 inh -2.6%&-4.3%&22.2%.
Screening OC(Cn1cncn1)(Cn1cncn1)c1ccc(F)cc1F returned TDP1 block 6.8%[56.1 µM] and GCN5L2 inh -15.9%.
For COc1ccc2cc1Oc1ccc(cc1)C[C@H]1c3c(cc4c(c3Oc3cc5c(cc3OC)CCN(C)[C@@H]5C2)OCO4)CCN1C the results were TDP1 block 13.3%&7.1% and GCN5L2 inh 1.4%&-3.7%.

The closing four entries of the part above lead into the next:
`CC12CCC(=O)C=C1CCC1C2C(=O)CC2(C)C1CCC2(O)C(=O)CO` (stereo not given) gave TDP1 block -11.9% and GCN5L2 inh -13.9%.
`CC(C)NCC(O)c1ccc(O)c(O)c1` (stereo not given) gave TDP1 block -9.5%[56.1 µM] and GCN5L2 inh -2.6%&-4.3%&22.2%.
Screening OC(Cn1cncn1)(Cn1cncn1)c1ccc(F)cc1F returned TDP1 block 6.8%[56.1 µM] and GCN5L2 inh -15.9%.
For COc1ccc2cc1Oc1ccc(cc1)C[C@H]1c3c(cc4c(c3Oc3cc5c(cc3OC)CCN(C)[C@@H]5C2)OCO4)CCN1C the results were TDP1 block 13.3%&7.1% and GCN5L2 inh 1.4%&-3.7%.
`N[C@@H](CC(=O)O)C(=O)O` gave TDP1 block 4.0% and GCN5L2 inh -5.9%.
`NS(=O)(=O)c1cc(C(=O)O)c(NCc2ccco2)cc1Cl` gave TDP1 block 7.6% and GCN5L2 inh 8.8%[21.4 µM].
For O=c1[nH]cc(F)c(=O)[nH]1 the results were TDP1 block -3.6% and GCN5L2 inh -6.7%&1.6%.
`Cc1ccc2nc(SCC(=O)c3c(N)n(C)c(=O)n(C)c3=O)[nH]c2c1` gave TDP1 block 3.0% and GCN5L2 inh -4.3%.
COc1cc2c(cc1OC)-c1cc(=Nc3c(C)cc(C)cc3C)n(C)c(=O)n1CC2 was read as TDP1 block 18.0%[56.1 µM] and GCN5L2 inh inconclusive.
Screening NC(=O)c1ncn([C@H]2O[C@@H](CO)[C@@H](O)[C@@H]2O)n1 returned TDP1 block 1.5%[21 µM] and GCN5L2 inh 3.2%[21.4 µM].
Screening COc1ccccc1N1CCN(C[C@@H](O)COc2cccc3ccccc23)CC1 returned TDP1 block 17.9% and GCN5L2 inh 5.5%[21.4 µM].
For C[C@H](CCC(=O)O)[C@H]1CC[C@@H]2[C@H]3[C@@H](C[C@@H](O)[C@]21C)[C@]1(C)CC[C@H](O)C[C@@H]1C[C@@H]3O the results were TDP1 block 8.5% and GCN5L2 inh 14.0%.
CCN(CC)CC(=O)Nc1c(C)cccc1C was read as TDP1 block -8.7% and GCN5L2 inh 4.5%.
CCOc1ccccc1N(C(=O)c1snc(C(N)=O)c1N)C(C(=O)NCCC(C)C)c1ccco1 (stereo not given) was read as TDP1 block 4.0% and GCN5L2 inh -7.7%.
`O=CC(=O)c1ccccc1` gave TDP1 block 1.5%&16.6% and GCN5L2 inh -16.0%.
`CC(C)n1c(/C=C\[C@@H](O)C[C@@H](O)CC(=O)O)c(-c2ccc(F)cc2)c2ccccc21` gave TDP1 block 9.1%[56.1 µM] and GCN5L2 inh -5.9%[21.4 µM].
`CC#C[C@]1(O)CC[C@H]2[C@@H]3CCC4=CC(=O)CCC4=C3[C@H](c3ccc(N(C)C)cc3)C[C@@]21C` gave TDP1 block 21.4% and GCN5L2 inh -25.4%.
`O=C(O)CC(O)(CC(=O)O)C(=O)O` gave TDP1 block 9.0%[56.1 µM] and GCN5L2 inh 11.3%.
`COCCN1CCN(C(=O)c2cc(COc3cc(C)ccc3C)on2)CC1` gave TDP1 block 2.6% and GCN5L2 inh -3.7%.
Screening OC[C@H]1O[C@@H]2O[C@H]3[C@H](O)[C@@H](O)[C@@H](O[C@H]4[C@H](O)[C@@H](O)[C@@H](O[C@H]5[C@H](O)[C@@H](O)[C@@H](O[C@H]6[C@H](O)[C@@H](O)[C@@H](O[C@H]7[C@H](O)[C@@H](O)[C@@H](O[C@H]8[C@H](O)[C@@H](O)[C@@H](O[C@H]1[C@H](O)[C@H]2O)O[C@@H]8CO)O[C@@H]7CO)O[C@@H]6CO)O[C@@H]5CO)O[C@@H]4CO)O[C@@H]3CO returned TDP1 block 11.0% and GCN5L2 inh -23.4%.
Screening CCC(c1ccc(O)cc1)C(CC)c1ccc(O)cc1 (stereo not given) returned TDP1 block 7.3%[56.1 µM] and GCN5L2 inh -3.1%&-6.2%.
NC(=O)CCN1CCN(CCOC2Cc3cc(Cl)ccc3Sc3ccccc32)CC1 (stereo not given) was read as TDP1 block 2.6% and GCN5L2 inh -1.0%.
For O=[N+]([O-])c1ccccc1Nc1ccccc1 the results were TDP1 block 7.7%&26.2% and GCN5L2 inh -9.2%.
Screening CN(C)CCCN1c2ccccc2Sc2ccc(C(F)(F)F)cc21 returned TDP1 block 8.2% and GCN5L2 inh -1.6%.
Screening CC(=O)Nc1ccc(S(=O)(=O)Nc2ccc([N+](=O)[O-])cc2)cc1 returned TDP1 block 14.7%[56.1 µM] and GCN5L2 inh -19.0%.
For O=C(O)c1ccc(S(=O)(=O)N(Cl)Cl)cc1 the results were TDP1 block 10.7%[56.1 µM] and GCN5L2 inh -5.1%.
`CC(C)(C)NC(=O)[C@@H]1C[C@H]2CCCC[C@@H]2CN1C[C@H](O)[C@H](Cc1ccccc1)NC(=O)[C@@H](CC(N)=O)NC(=O)c1ccc2ccccc2n1` gave TDP1 block 5.6%[21 µM] and GCN5L2 inh 1.8%[21.4 µM].
For COc1cc(C2c3cc4c(cc3C(OC3OC5COC(c6cccs6)OC5C(O)C3O)C3COC(=O)C23)OCO4)cc(OC)c1O (stereo not given) the results were TDP1 block 5.2% and GCN5L2 inh 0.0%.
For COCCOC(=O)C1=C(C)NC(C)=C(C(=O)OC(C)C)[C@H]1c1cccc([N+](=O)[O-])c1 the results were TDP1 block 4.1%[21 µM] and GCN5L2 inh 0.0%[21.4 µM].
Screening C[C@@]12CCC(=O)C=C1CC[C@@H]1[C@@H]2[C@H](O)C[C@]2(C)[C@@H]1CC[C@]2(O)C(=O)CO returned TDP1 block 13.3%[21 µM] and GCN5L2 inh 9.8%[21.4 µM].
`C[C@]12CCC(=O)C=C1CC[C@@H]1[C@@H]2[C@@H](O)C[C@@]2(C)[C@H]1CC[C@]2(O)C(=O)CO` gave TDP1 block 2.9%&4.7%&12.2% and GCN5L2 inh -4.6%&-0.7%&1.3%&18.4%.
C1COCCNCCOCCOCCN1 was read as TDP1 block 6.7% and GCN5L2 inh -2.9%.
Screening O=C(O)[C@H](O)[C@@H](O)[C@H](O)[C@H](O)CO returned TDP1 block -2.1% and GCN5L2 inh 34.1%[activator].
Screening CCN(CC)CCC[C@H](C)Nc1ccnc2cc(Cl)ccc12 returned TDP1 block 11.3%[21 µM] and GCN5L2 inh 9.4%[21.4 µM].
`C[C@@H]1O[C@@H]1P(=O)(O)O` gave GCN5L2 inh -2.8%.
Screening OC[C@@H](O)[C@@H](O)[C@H](O)[C@H](O)CO returned TDP1 block 2.1% and GCN5L2 inh -8.0%&-11.7%.
Screening CO[C@H]1/C=C/O[C@@]2(C)Oc3c(C)c(O)c4c(O)c(c(C=NN5CCN(C)CC5)c(O)c4c3C2=O)NC(=O)/C(C)=C\C=C\[C@H](C)[C@H](O)[C@@H](C)[C@@H](O)[C@@H](C)[C@H](OC(C)=O)[C@@H]1C returned GCN5L2 inh -4.7%.
Screening COc1c(C)c2c(c(O)c1C/C=C(\C)CCC(=O)O)C(=O)OC2 returned TDP1 block 9.9%[56.1 µM] and GCN5L2 inh -0.8%[21.4 µM].
`OC[C@@H](O)[C@@H](O)[C@H](O)[C@@H](O)CO` gave GCN5L2 inh -3.0%.
For O=C(NC1CCCCC1)c1ccc2c(c1)OCO2 the results were GCN5L2 inh -6.4%.
Screening OCC(O)C(O)C(O)C(O)CO (stereo not given) returned TDP1 block 10.2%&4.3%&2.1% and GCN5L2 inh 0.0%&-19.0%&22.8%.
`NCC(=O)O` gave TDP1 block -3.0% and GCN5L2 inh -4.7%&-7.1%.
O=S(=O)(Cc1ccccc1)N1CCNCC1 was read as GCN5L2 inh -2.8%.
CC(=O)C1=C(c2ccccc2)NC(=O)NC1c1cccs1 (stereo not given) was read as GCN5L2 inh -5.6%.
Screening NCC(c1ccco1)c1c[nH]c2ccccc12 (stereo not given) returned GCN5L2 inh -3.5%.
C[N+](C)(CCOc1ccccc1)Cc1ccccc1 (tested in a mixture with another compound) was read as TDP1 block 2.0% and GCN5L2 inh -6.2%.
`COc1cccc(OC)c1C(=O)NC1C(=O)N2C1SC(C)(C)C2C(=O)O` (stereo not given) gave TDP1 block -14.7%[56.1 µM] and GCN5L2 inh 0.9%.
Screening COc1cccc2c1[C@@H]1CN(CCCCn3c(=O)[nH]c4c(sc5ncc(-c6ccccc6)nc54)c3=O)C[C@@H]1CO2 returned TDP1 block 18.4%[56.1 µM] and GCN5L2 inh -18.3%&-8.2%.
For CC[n+]1c(/C=C/N(C)c2ccccc2)oc2ccccc21 the results were TDP1 block 0.0% and GCN5L2 inh -16.4%.
CN(C)CCC(c1ccc(Cl)cc1)c1ccccn1 (stereo not given) was read as TDP1 block 8.5%[56.1 µM] and GCN5L2 inh 4.0%&-2.2%&-5.6%&-5.2%.
For NC(N)=S the results were TDP1 block -1.5%&3.1% and GCN5L2 inh -3.8%.
CN1CCN(CC(=O)N2c3ccccc3C(=O)Nc3cccnc32)CC1 was read as TDP1 block 2.7% and GCN5L2 inh inconclusive.
Screening CC(CC(=O)N1CCN(S(=O)(=O)c2ccc(Cl)cc2)CC1)n1cncn1 (stereo not given) returned TDP1 block -0.3% and GCN5L2 inh -2.2%.
`C[C@@]12CCC(=O)C=C1CC[C@H]1[C@H]3CC[C@](O)(C(=O)CO)[C@]3(C)CC(=O)[C@@H]12` gave TDP1 block 3.9%[56.1 µM] and GCN5L2 inh inconclusive.
